KCNQ2 pot: potentiators of rat KCNQ2 potassium channel; O88943; CHO-K1 KCNQ2, FluxOR thallium flux fluorescence; hits give high values; B-score at 10 µM; actives 0.54% (n = 310,000); AID 2239;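 active = fluorescence ratio B-score at least 3 SD of library B-scores, with initial fluorescence B-score within 3 SD, cut at about 5.3 in these data; same plate scores as AID 2156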;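 note: B-score of peak minus minimum over baseline fluorescence ratio after K+ and Tl+ stimulus; positive B-score means potentiation of KCNQ2 with more thallium influx and brighter signal; only the inactives scoring about 0 or higher are listed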
Target sequence (O88943 whole entry, looked up): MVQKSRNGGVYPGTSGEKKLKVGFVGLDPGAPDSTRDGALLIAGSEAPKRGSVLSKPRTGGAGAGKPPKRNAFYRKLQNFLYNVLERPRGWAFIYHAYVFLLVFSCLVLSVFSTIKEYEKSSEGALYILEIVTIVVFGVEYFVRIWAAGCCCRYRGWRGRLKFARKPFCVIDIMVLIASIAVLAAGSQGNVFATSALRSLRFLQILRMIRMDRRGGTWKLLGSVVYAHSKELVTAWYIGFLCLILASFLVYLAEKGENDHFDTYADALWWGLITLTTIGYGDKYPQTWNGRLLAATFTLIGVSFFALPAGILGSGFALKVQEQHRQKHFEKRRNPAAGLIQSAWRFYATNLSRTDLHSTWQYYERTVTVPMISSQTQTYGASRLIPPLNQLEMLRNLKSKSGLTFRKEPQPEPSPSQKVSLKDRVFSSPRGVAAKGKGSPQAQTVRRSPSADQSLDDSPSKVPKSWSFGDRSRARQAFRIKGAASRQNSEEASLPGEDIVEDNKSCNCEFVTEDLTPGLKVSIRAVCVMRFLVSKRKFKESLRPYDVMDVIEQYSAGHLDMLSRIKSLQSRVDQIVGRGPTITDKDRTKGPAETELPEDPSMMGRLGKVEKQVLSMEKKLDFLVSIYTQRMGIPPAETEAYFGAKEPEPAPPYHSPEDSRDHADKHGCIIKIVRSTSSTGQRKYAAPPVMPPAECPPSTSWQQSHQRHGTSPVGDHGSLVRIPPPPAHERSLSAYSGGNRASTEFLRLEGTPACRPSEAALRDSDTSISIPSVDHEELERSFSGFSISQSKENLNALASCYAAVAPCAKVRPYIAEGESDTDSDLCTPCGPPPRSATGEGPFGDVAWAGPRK
KCNQ2 pot baseline: recorded beside KCNQ2 pot, whose call it bears; B-score; compound at 10 µM; measured here: initial fluorescence intensity artifact check;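 brightness before thallium and not channel activity; 0 = typical well and far values either way flag optical interference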
The depositor's hits bear a star.

KCNQ2 pot,KCNQ2 pot baseline,smiles
0.46,0.86,CN(C)S(=O)(=O)c1cccc(NC(=O)COC(=O)C2(c3ccccc3F)CCCC2)c1
0.03,-0.01,CC1CCN(CC(=O)Nc2ccc(S(=O)(=O)NC3CC3)cc2)CC1
0.23,-2.5,O=C(O)c1ccnc(SCC(=O)c2ccccc2)c1
2.2,-1.4,O=C(Nc1ccc(NC(=O)c2cccc([N+](=O)[O-])c2)cc1)c1cccc([N+](=O)[O-])c1
1.6,-2.8,COc1ccc(/C=C2/C(=O)OCc3cc(OC)c(OC)cc32)c(OC)c1
1.2,-1.2,COc1cc(C(=S)N2CCOCC2)ccc1OS(=O)(=O)c1ccc(NC(C)=O)cc1
0.3,0,O=C(O)c1cccc(N=NN2CCCCCC2)c1
3.5,-0.1,S=C(NCc1ccc(Cl)cc1Cl)NC1CCCCC1
0.73,0.03,COC(=O)c1cc(NC(=O)CC2C(=O)NCCN2C(=O)c2ccc(F)cc2)cc(C(=O)OC)c1 (centres undefined)
1.6,-0.66,Cc1cccc(-c2noc(CCCC(=O)Nc3cccnc3)n2)c1
0.39,0.29,O=C(O)c1ccc(O)c(O)c1
0.09,-0.33,COc1ccccc1N1CCN(C(=O)C2CCCN(c3ncnc4c3nc3n4CCCCC3)C2)CC1 (centres undefined)
2,0.39,COc1cccc(CN2CCN(Cc3ccon3)CC2CCO)c1 (centres undefined)
0.17,0.54,COC(=O)c1cccc(Oc2cccc(C(F)(F)F)c2)n1
0.03,1.1,C/C(=N\NC(=O)COc1ccc(C(C)(C)C)cc1)c1ccc(N2CCOCC2)cc1

In the list so far, three have fluorine.
KCNQ2 pot,KCNQ2 pot baseline,smiles
0.46,0.86,CN(C)S(=O)(=O)c1cccc(NC(=O)COC(=O)C2(c3ccccc3F)CCCC2)c1
0.73,0.03,COC(=O)c1cc(NC(=O)CC2C(=O)NCCN2C(=O)c2ccc(F)cc2)cc(C(=O)OC)c1 (centres undefined)
0.17,0.54,COC(=O)c1cccc(Oc2cccc(C(F)(F)F)c2)n1

(more compounds)
KCNQ2 pot,KCNQ2 pot baseline,smiles
0.5,-1.1,Cn1c(SCC(=O)Nc2ccc3cn[nH]c3c2)nnc1-c1cnccn1
1.4,0.96,COc1cc(C(=O)N[C@@H](C)C(=O)NCc2ccco2)cc(OC)c1OC
1.4,-0.28,CC(Oc1ccc2c(-c3ccccc3)cc(=O)oc2c1)C(=O)N1CCC[C@@H]1C(N)=O (some centres undefined)
0.05,-0.12,CN(Cc1nccs1)C(=O)C1CCC(=O)N(CCc2ccc(Cl)cc2)C1 (centres undefined)
0.75,1.5,O=C(CCn1c(=O)oc2ccccc21)NCCN1CCc2ccccc2C1
1.1,0.27,Cc1ccc(NC(=O)CCNC(=O)c2ccccc2)cc1F
0.13,1,C/C(=N\NC(=O)c1ccc(N(C)C)cc1)c1ccc(C)c(C)c1
0.98,0,C[C@H](NC(=O)C1CCN(S(=O)(=O)c2ccccc2)CC1)C(=O)NCc1ccc(F)cc1
1.9,-0.15,NC(=O)CC(NC(=O)Cc1ccc(Br)cc1)c1ccc(N2CCN(c3ccccn3)CC2)c([N+](=O)[O-])c1 (centres undefined)
0.69,-1.6,c1ccc(-c2cn(C[C@H]3CC[C@@H]([C@@H]4CC[C@H](Cn5cc(-c6ccccc6)nn5)O4)O3)nn2)cc1
0.27,-0.11,COC(=O)c1ccc(C(=O)OC)c(NC(=O)CN2CCCCC2)c1
0.75,-2.9,O=C(CSc1nnc(CNC(=O)c2c(F)cccc2Cl)o1)c1ccccc1
1.6,0.85,CC(C)(C)c1nnc(NC(=O)C2c3ccccc3Oc3ccccc32)s1
0.19,-0.17,O=C(CS(=O)CC(=O)NC12CC3CC(CC(C3)C1)C2)Nc1ccc(F)cc1 (centres undefined)
1.7,-0.92,Cn1c(NNC(=O)c2ccc(C(C)(C)C)cc2)cc(=O)n(C)c1=O
0.68,-1.7,NC(=O)CSc1nnc(-c2ccco2)n1-c1ccccc1
0.34,1.1,COC(=O)c1c(NC(=O)C(=O)NCCCN2CCOCC2)sc2c1CC(C)(C)OC2
0.67,-0.58,Cc1cc(C)c(S(=O)(=O)N(CC(=O)O)CC(=O)O)c(C)c1
1.4,-0.09,COc1ccccc1NC(=O)c1ccc(NS(=O)(=O)c2cccc3cccnc23)cc1
1.2,0.5,CC(c1ccccc1)C1CC(=O)N(c2cc(Cl)ccn2)C1=O (centres undefined)
0.61,0.1,CN1CCN(NC(=S)NC2CCCCC2)CC1
1.1,-0.68,NC(=O)Cn1nnc(-c2ccc(CN3CCCCC3)cc2)n1
2.5,-0.46,CCc1cccc(C)c1NC(=O)CSc1nc(C)c(C)o1
0.55,1.3,CCOC(=O)N1CCN(C(=O)CSc2nnc(-c3c[nH]c4ccccc34)n2CCOC)CC1
1.3,2.4,COc1ccc(C(=O)NC(=S)N(C)C2CCCCC2)cc1Br
1.8,-1.8,COCCCNC(=S)NNC(=O)c1cc(-c2cccnc2)nc2ccccc12
0.01,-0.83,O=C(CCS(=O)(=O)c1cccs1)Nc1ccc(C(=O)NCc2ccccc2)cc1
0.23,2.4,CC(C)CNC(=O)CSc1nnc(-c2cccc(S(=O)(=O)N3CCCCC3)c2)o1
0.18,-0.83,CCOC(=O)N1CCC(N(CCN(C)C)C(=S)Nc2ccc(Oc3ccccc3)cc2)CC1
1.1,-0.62,COc1ccc(C(C(=O)NC2CCCC2)N(Cc2ccccc2)C(=O)c2snc(C(N)=O)c2N)cc1OC (centres undefined)

Of the compounds above, these contain bromine:
KCNQ2 pot,KCNQ2 pot baseline,smiles
1.9,-0.15,NC(=O)CC(NC(=O)Cc1ccc(Br)cc1)c1ccc(N2CCN(c3ccccn3)CC2)c([N+](=O)[O-])c1 (centres undefined)
1.3,2.4,COc1ccc(C(=O)NC(=S)N(C)C2CCCCC2)cc1Br

Next part:
KCNQ2 pot,KCNQ2 pot baseline,smiles
0.26,0.09,CCc1nnc(NC(=O)CSc2nnc(Cc3ccccc3)n2-c2ccccc2)s1
0.43,0.36,Cc1ccccc1CC(=O)NCCN1CCOCC1
2.5,0.99,O=C(O)c1cnc(-c2ccccc2)nc1Sc1ccccc1
0.52,-1.3,Cc1cccc(CCNC(=O)C2CCN(S(=O)(=O)c3c(C)nn(C)c3C)CC2)c1
0.43,0.13,CC(=O)Nc1ccc(Nc2ncnc(N)c2[N+](=O)[O-])cc1
1.3,0.26,O=C(N/N=C\c1cccnc1)c1ccc(Cl)cc1Cl
0.54,0.99,CCOC(=O)c1nn(-c2ccc3ccccc3c2)cc1O
0.19,0.74,O=C(Nc1cc2c(=O)n(-c3ccc(Oc4ccccc4)cc3)ccc2oc1=O)c1ccccc1
0.72,-0.46,CCc1ccc(NC(=S)N(CCCN2CCN(C)CC2)Cc2cccs2)cc1
0.35,-0.15,CCOC(=O)c1ccc2[nH]c3c(c2c1)CN(C)CC3
0.21,0.06,O=C(CN1CCCC1)Nc1c2c(nc3ccccc13)N(Cc1ccccc1)CC2
0.14,-2.3,Nc1cc(Cl)nc(N/N=C/c2ccc([N+](=O)[O-])cc2)n1
1.6,0.07,CCCc1ccc2oc(C(=O)N(C)Cc3ccn[nH]3)c(C)c2c1
0.9,0.67,COc1ccccc1C(CNC(=O)c1cccc(S(=O)(=O)NCc2ccccc2)c1)N(C)C (centres undefined)
0.44,-1.9,CCCCCCOc1ccc(N2C(=O)CC(N(CCc3ccc(S(N)(=O)=O)cc3)C(C)=O)C2=O)cc1 (centres undefined)
1.2,-1.9,Cc1ccc(S(=O)(=O)NNC(=O)c2ccc(NC(=O)C3CC3)cc2)cc1
0.26,-0.05,O=C(NCc1cccnc1)C1CC(c2ccccc2O)=NO1 (centres undefined)
1.3,-0.66,COc1cc(OC)cc(C(=O)NNC(=O)c2ccccc2Br)c1
0.74,0.23,O=S(=O)(c1ccc(NC(=S)NN=C(C2CC2)C2CC2)cc1)N1CCOCC1
0.35,-1.1,CC(NC(=O)C1CCC(CNS(=O)(=O)c2ccc3c(c2)C(C)(C)C(=O)N3C)CC1)c1ccccc1 (centres undefined)
0.02,0.42,CCCOC(=O)c1ccc(Oc2c(-c3ccc(OC)cc3O)n[nH]c2C)cc1
0.47,-1.4,Cc1sc2ncnc(-n3cnc4ccccc43)c2c1C
0.49,-2.4,Cc1ccc(NC(=O)c2[nH]cnc2C(=O)NN)cc1
0.6,2.3,COc1ccccc1CO/N=C/c1cccn1-c1nccc(N(C)C)c1C#N
1.8,0.22,Nc1nonc1-n1nnc(C(=O)N/N=C/c2cccnc2)c1CSC1=NCCS1
0.76,0.6,Cc1cc(=O)c(C(=O)O)nn1-c1ccccc1
0.26,1.4,CC1(C)CC(=O)C(C=NCCN2CCN(CC(=O)Nc3ccc(F)cc3)CC2)=C(O)C1
0.18,-1.3,O=C(Nc1cccc(S(=O)(=O)NC2=NCCCCC2)c1)c1cc(-c2ccccc2Cl)nc2ccccc12
0.18,0.59,O=C(CN(C(=O)CNS(=O)(=O)c1ccc(F)cc1)c1ccc(F)cc1)NCc1ccco1
1.5,0.11,O=C(Cc1nnc(NC(=O)c2ccccc2)s1)N/N=C/c1ccc(O)cc1

By substructure, those above with a COOH group (6)
KCNQ2 pot,KCNQ2 pot baseline,smiles
0.23,-2.5,O=C(O)c1ccnc(SCC(=O)c2ccccc2)c1
0.3,0,O=C(O)c1cccc(N=NN2CCCCCC2)c1
0.39,0.29,O=C(O)c1ccc(O)c(O)c1
0.67,-0.58,Cc1cc(C)c(S(=O)(=O)N(CC(=O)O)CC(=O)O)c(C)c1
2.5,0.99,O=C(O)c1cnc(-c2ccccc2)nc1Sc1ccccc1
0.76,0.6,Cc1cc(=O)c(C(=O)O)nn1-c1ccccc1

Later entries
KCNQ2 pot,KCNQ2 pot baseline,smiles
0.78,0.58,NCc1ccc2[nH]c(=O)[nH]c2c1
1.2,2.4,Cc1ccc(Cl)c(OCCN2CCCC(C)C2)c1 (centres undefined)
0.05,0.67,O=C(Nc1ncn[nH]1)c1cc(S(=O)(=O)Nc2ccc(Cl)cc2)ccc1Cl
0.14,0.14,O=C1CC2(CCN(S(=O)(=O)c3ccccc3)CC2)Oc2ccccc21
0.73,-0.22,Cc1ccc(NC(=O)NCCN2CCCCC2)cc1C
0.62,1.2,Cc1ccc(N)cc1S(=O)(=O)N(C)C
0.12,0,Cc1ccc2cc(CCNC(=O)c3ccc(C)c([N+](=O)[O-])c3)c(=O)[nH]c2c1
0.32,0.78,COC(=O)[C@@]1(Cc2ccc(F)cc2)[C@H]2c3cc(C(=O)N(C)C)n(CCc4ccccn4)c3C[C@H]2CN1C(=O)c1ccccc1
0.98,0.18,O=C(COC(=O)CCc1nc2ccccc2s1)Nc1nc(-c2ccccc2)cs1
0.31,3.5,COCCSc1nnc(NC(=O)c2cc(OC)c(OC)cc2[N+](=O)[O-])s1
1.5,0.49,COc1ccccc1CNC(=O)N1CCN(c2ccccc2Cl)CC1
1.6,0.81,Cn1c(COc2ccc(Cl)cc2)nnc1SCC(=O)NC1CCCC1
0.55,1.5,Cc1ccc(S(=O)(=O)N2CCC(C(=O)NC3CC(C)(C)NC(C)(C)C3)CC2)cc1
0.75,0.09,COC(=O)c1c(C)oc(C)c1S(=O)(=O)NCc1ccc(OC)cc1
0.17,-1.2,Cc1cc(SCC(=O)Nc2ccccc2)nc(C)n1

Compound profiles (already shown). Values in the order: KCNQ2 pot | KCNQ2 pot baseline
Cc1ccc(Cl)c(OCCN2CCCC(C)C2)c1 (centres undefined) is listed as 1.2 | 2.4
O=C(Nc1ncn[nH]1)c1cc(S(=O)(=O)Nc2ccc(Cl)cc2)ccc1Cl is listed as 0.05 | 0.67

(more compounds)
KCNQ2 pot,KCNQ2 pot baseline,smiles
0.6,0.02,O=C(Nc1ccc(N2CCOCC2)c(S(=O)(=O)Nc2cc(Cl)ccc2Cl)c1)c1cccnc1
1.5,-1.7,Cc1cccc(N(C(=O)CCC(=O)Nc2cccnc2)C(C(=O)NC2CCCC2)c2ccncc2)c1 (centres undefined)
0.59,1.3,CCC(=O)N(CC)Cc1cc(=O)[nH]c2ccccc12
0.01,1.6,CC(Sc1nc2ccccc2[nH]1)C(=O)Nc1ccc2c(c1)OCCO2 (centres undefined)
0.67,1.8,CCOc1ccc(NC(=O)CN2C(=O)CSC(C)C2=O)cc1 (centres undefined)
0.32,1.1,CCN(CCn1cccn1)C(=O)CCc1nnc(C2CCCCC2)o1
1,1.2,O=C(O)C1OC(C(=O)O)C2C1C(F)(F)C2(F)F (centres undefined)
0.32,0.98,CCOC(=O)C1CCN(c2c(NCc3ccc(N(C)C)cc3)c(=O)c2=O)CC1
1,-0.26,C/C(=N\NC(=O)c1ccc(NS(=O)(=O)c2cccs2)cc1)c1ccccn1
0.71,0.15,COc1ccc(/C=N/NC(=O)c2cccnc2)c2ccccc12
1.4,0.56,Nc1[nH]n2c(=O)cc(-c3ccccc3)nc2c1N=Nc1ccc2c(c1)OCO2
1.1,-0.2,Cc1ccsc1C(C(=O)NC1CCCCC1)N(C(=O)c1csnn1)C1CC1 (centres undefined)
0.51,0.16,CCCCCC(=O)N1CCCCC1
3.4,-0.21,Cc1ccc2cc(/C=N/NC(=O)CN3CCCCC3)c(Cl)nc2c1
0.95,-1.5,COc1cccc(NC(=O)NCc2cccn2C)c1
0.92,0.04,COCCCC1CCN(C(=O)C2CCC(=O)N(C3CCCCCC3)C2)CC1 (centres undefined)
0.86,-0.28,CC(=O)c1cc(C#N)c(SCc2ccc(F)cc2)nc1C
0.79,0.61,COc1cc(OC)nc(/N=C/NO)n1
0.21,0.92,COC(=O)c1nn(C23CC4CC(CC(C4)C2)C3)c2c1C(=O)N(c1ccc(F)cc1)C2=O
0.57,0.42,COc1ccc(C(=O)NC(=S)Nc2ccc(N3CCOCC3)c(Cl)c2)cc1[N+](=O)[O-]
0.03,-0.95,COc1ccc(CN(C(=O)CN2C(=O)c3ccccc3S2(=O)=O)C(C(=O)NCC2CCCO2)c2ccco2)cc1 (centres undefined)
0.24,-0.12,CCn1c(SCC(=O)NCc2cccs2)nnc1-c1ccco1
2.8,-0.01,COc1ccccc1CNCC(=O)Nc1ccc(C(F)(F)F)cc1

High-throughput results (PubChem BioAssay)

Only part of the results is shown; count on the stated rates, not on these rows.
